# Sa RN4220 lethal: growth inhibition of S. aureus RN4220, primary screen, OD600; 16 h; inhibition, % (test concentration not listed); actives 0.33% (n = 330,000);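 active means z-score of -3 or lower and OD600 up to 0.18 on both plates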;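 further: plate controls were untreated cells for no effect and reference antibiotic for full effect; stock transfer was 100 nL into about 80 µL; one replicate is shown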
# Autofluor counter: flagged as autofluorescent in microsphere protease counterscreen; fluorescence intensity (concentration not given with the values); compound autofluorescence counterscreen, microsphere flow cytometry; hits give high values; actives 3.1% (n = 360,000);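 active means at least 3 SD above the mean of all compounds, about 16000 in these data; inconclusive means too few beads counted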;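 further: 100 nL of 1 mM stock went into each well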
# PrP 5UTR inh: inhibition of PrP 5' UTR reporter expression; cell-based PrP 5' UTR mRNA reporter, plate reader; inhibition, % (no concentration beside the values); actives 0.35% (n = 340,000); AID 488862, 2010;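 active means every replicate at 50% or more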;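 further: 0 = median of the neutral control wells; tested in H4 reporter cells; numbers are from one replicate; inactives centre near -14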
# ugtP null kill: growth inhibition of ugtP-null S. aureus, primary screen, RN4220 ugtP deletion, OD600; 16 h; some inactives read as strong as hits; growth inhibition, % (test concentration not listed); actives 0.54% (n = 330,000); AID 1259309, 2017;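 active means z-score under -3 and OD600 up to 0.15 on both plates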;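 further: plate controls were untreated wells for no effect and antibiotic for full effect; wells of about 80 µL received 100 nL stock; the first replicate is given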
# BJeLR lethal: MLPCN primary cell-based screen for lethality selective to Ras in HRASV12 cells. BJeLR (HRASV12) viability, CellTiter-Glo ATP luminescence, 48 h; reference of the scale not given here. inhibition, % (test concentration not listed). actives 0.17% (n = 300,000). AID 1554, 2009;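 active means replicate mean above 50%; inconclusive means above 50% but judged a plate artefact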;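 further: 50 nL library stock added to about 25 µL; numbers are from one replicate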
# Mtb hypoxia rep: PubChem AID 1159583; M. tuberculosis hypoxia-regulated fluorescent reporter, fluorescence; fluorescence inhibition, % (concentration not given with the values); actives 0.1% (n = 300,000);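 active means 35 to 45% if threefold the growth effect, above 45% if 1.5-fold the growth effect; inactive means the rest, general growth blockers included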;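 further: wells of about 50 µL received 100 nL stock; 0% = vehicle wells and 100% = reference inhibitor wells; whole bacteria with a GFP reporter of the hypoxia response; strong numbers were not always called active; many hits fall short of the cut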
# Mtb hypoxia rep growth: further read-out of Mtb hypoxia rep, marked with its call; growth inhibition, %; measured here: M. tuberculosis growth (absorbance);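 0% = vehicle and 100% = reference antibiotic; read after six days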
# Active calls of the source: *; ? = inconclusive; . = no result given.
# The opening 3 records, ahead of the listing:
# Every second line gives: Sa RN4220 lethal, Autofluor counter, PrP 5UTR inh, ugtP null kill, BJeLR lethal, Mtb hypoxia rep, Mtb hypoxia rep growth
1) Cc1cc(C)c(CN2CCN(C(=O)Cn3ccc(N)nc3=O)CC2)c(C)c1
  19, 3090, -24, 13, ., -2, -7
2) COc1ccccc1NS(=O)(=O)c1cc(NC(=O)CCC2CCCC2)ccc1N1CCOCC1
  -0.3, 4574, -22, -18, 0, -10, 2
3) COc1ccc(S(=O)(=O)N2CCCN(CC(=O)Nc3ccc(OC)c(Cl)c3)CC2)cc1
  -0.8, 4742, 1, 1, 10, ., .

# The listing, from the start:
# Every second line gives: Sa RN4220 lethal, Autofluor counter, PrP 5UTR inh, ugtP null kill, BJeLR lethal, Mtb hypoxia rep, Mtb hypoxia rep growth
1) Cc1cc(C)c(CN2CCN(C(=O)Cn3ccc(N)nc3=O)CC2)c(C)c1
  19, 3090, -24, 13, ., -2, -7
2) COc1ccccc1NS(=O)(=O)c1cc(NC(=O)CCC2CCCC2)ccc1N1CCOCC1
  -0.3, 4574, -22, -18, 0, -10, 2
3) COc1ccc(S(=O)(=O)N2CCCN(CC(=O)Nc3ccc(OC)c(Cl)c3)CC2)cc1
  -0.8, 4742, 1, 1, 10, ., .
4) O=C(NN=Cc1ccc([N+](=O)[O-])s1)C(O)c1ccccc1 (stereo unspecified)
  37, ., ., 57, ., 13, 0
5) COc1cc(C)nc(N2CCCC(C(=O)Nc3ccccc3Br)C2)n1 (stereo unspecified)
  5.0, 2300, -16, 2, -7, 5, 2
6) Cc1ccc(Cl)cc1NC(=O)c1cc(NC(=O)CCCC(=O)O)ccc1N1CCCCC1
  2.5, 7251, -4, 3, -13, 18, 15
7) COC(=O)c1ccc(Cn2cc(Cl)cn2)cc1
  6.2, 3949, -3, 16, 9, 8, 5
8) Cc1ccc(S(=O)(=O)c2nc(-c3ccccc3Cl)oc2N(C)C)cc1
  1.8, 6052, -14, 1, -2, 0, 2
9) O=C(Nc1ccc(F)c([N+](=O)[O-])c1)c1ccc2c(c1)OCCO2
  -1.4, 2859, -39, -2, -1, 11, 8
10) CC(=O)c1ccccc1N(C(=O)c1ccco1)C(C(=O)NC1CCCC1)c1ccc(N2CCOCC2)cc1 (stereo unspecified)
  -1.4, 4382, -4, -1, 10, -5, 1
11) CCC(c1nnnn1Cc1ccc2c(c1)OCO2)N1CCN(c2ccccc2)CC1 (stereo unspecified)
  7.8, 3989, -13, 8, -2, 9, 3
12) C=CCNC(=O)CN(Cc1ccccc1)S(=O)(=O)c1ccccc1
  5.3, 3042, -19, 11, -5, -9, -4
13) O=C(Nc1ccc2nc(-c3ccco3)[nH]c2c1)c1ccco1
  0.2, 8982, -48, -15, -3, -3, -3
14) C/C(=N\OCC(=O)Nn1c(=O)[nH]c2ccccc2c1=O)c1cccs1
  ., 4148, 9, ., 11, ., .
15) COc1cccc(NC(=O)Nc2nnc(Cc3ccccc3F)s2)c1
  2.8, 3015, -16, 0, -10, 10, -6
16) O=S(=O)(c1ccccc1)N1CCCC1c1nc2ccccc2s1 (stereo unspecified)
  2.3, 3839, -17, -10, -17, 5, 5
17) COC(=O)[C@@H]1C[C@H]1[C@@H](NC(=O)c1ccccc1)c1ccccc1
  ., 3268, -1, ., -2, ., .
18) CC(C)n1cc(C(=O)c2ccccc2O)cc(C#N)c1=O
  11, 3283, -6, 5, -12, -8, -3
19) Cc1ccc(C(=O)C2CCN(S(=O)(=O)c3c(C)noc3C)CC2)cc1
  2.4, 4273, ., 2, -7, 11, 10
20) COC(=O)c1ccc(/C=N/NC(=O)C(=O)N2CCCCCC2)cc1
  ., 4832, -1, ., -11, ., .

# The final three compounds of the part before come first, to join the parts.
# Every second line gives: Sa RN4220 lethal, Autofluor counter, PrP 5UTR inh, ugtP null kill, BJeLR lethal, Mtb hypoxia rep, Mtb hypoxia rep growth
18) CC(C)n1cc(C(=O)c2ccccc2O)cc(C#N)c1=O
  11, 3283, -6, 5, -12, -8, -3
19) Cc1ccc(C(=O)C2CCN(S(=O)(=O)c3c(C)noc3C)CC2)cc1
  2.4, 4273, ., 2, -7, 11, 10
20) COC(=O)c1ccc(/C=N/NC(=O)C(=O)N2CCCCCC2)cc1
  ., 4832, -1, ., -11, ., .
21) O=C(COC(=O)Cc1ccccc1[N+](=O)[O-])NCc1ccc(F)cc1
  2.1, 2051, -17, -4, -2, 4, 5
22) CC(C)CC(=O)Nc1ccccc1N1CCOCC1
  -1.8, 3231, -16, -1, -2, ., .
23) Cn1c(SCC(=O)c2ccc(F)cc2)nc2cccnc21
  -1.9, 4792, -20, -1, -5, 2, -1
24) CCCC(C)C(=O)Nc1ccc(Cl)cc1Cl (stereo unspecified)
  8.8, 3077, -8, 6, 5, ., .
25) COCCN(CC(=O)Nc1cccc(C)c1C)C(=O)Cn1c(=O)cnc2ccccc21
  0.3, 4223, -25, -2, ., 1, 1
26) C=CCOc1ccc(/C=C/C(=O)OC(C)C(=O)Nc2ccc(NC(C)=O)cc2)cc1 (stereo unspecified)
  1.7, 6218, -12, 4, 1, 4, -1
27) c1ccc(-c2cncn2-c2ccccc2)cc1
  -0.2, 3874, -2, 1, 6, 1, 0
28) Cc1cc(C)cc(N2CC(C(=O)OCC(=O)Nc3cc(C)on3)CC2=O)c1 (stereo unspecified)
  -1.9, 3653, -14, 9, 6, 3, 4
29) CCOC(=O)C1=C(C)NC(=O)CC1c1cc2c(cc1Br)OCO2 (stereo unspecified)
  -13, 2856, -9, -1, 9, 7, 5
30) Cc1ccc2cc(C(c3nnnn3C3CCCC3)N(Cc3cccnc3)Cc3ccco3)c(=O)[nH]c2c1 (stereo unspecified)
  3.2, 11893, -13, -7, -8, 3, 7
31) O=C(NCc1ccccc1)C(=O)NCC1CCCN1S(=O)(=O)c1cccs1 (stereo unspecified)
  0.5, ?, -3, 4, 2, 2, -2
32) O=C(CSc1ncccn1)c1ccccc1Br
  6.5, 2441, -52, -3, -7, 11, 5
33) CCOC(=O)c1c(C)c(C)n(Cc2cccc(OC)c2OC)c1C
  3.4, 2970, -12, 15, -1, 7, 1
34) O=C1CSC(c2cccnc2)N1Cc1ccc(Cl)cc1Cl (stereo unspecified)
  2.5, 5787, -14, -2, 7, 10, 18
35) COc1ccc(Cl)cc1C(=O)Nc1ccc(S(=O)(=O)N2CCCC2)cc1
  3.7, 11545, ., 3, 11, 3, 0
36) COc1ccc(C)cc1NC(=O)NNC(=O)C(C)Oc1ccc([N+](=O)[O-])cc1 (stereo unspecified)
  -0.3, 5954, -15, -2, -2, -2, 13
37) Clc1cccc(-c2cc3nc4c(c(NCc5ccco5)n3n2)CCCC4)c1
  -2.0, 6361, -59, 12, 2, 1, 7
38) CC(=O)OC1CC[C@]2(C)C3=CC[C@]4(C)C(C(C)OC(C)=O)CCC4C3CCC2C1 (stereo partly specified)
  -9.6, ., ., -2, ., -5, -2
39) COC(=O)C1CSC(C(=O)OC)N1C(=O)CN1CCN(c2ccc(OC)cc2)CC1 (stereo unspecified)
  0.5, 4155, -20, 5, 12, 4, 3
40) CCn1c(/C=N/n2cnnc2)nc2ccccc21
  ., 6574, -17, ., -1, ., .
41) C[C@@]12C(=O)N(CC3CC3)CC(=O)N1[C@H](/C=C/c1ccccc1)[C@@H]1C(=O)N(c3ccccc3)C(=O)[C@@H]12
  ., 4074, -4, ., -2, ., .
42) CCOC(=O)c1ccc(NC(=O)CCc2ccc(C)o2)cc1
  -11, 2455, -21, -2, 5, 3, -3
43) CC(C)(C)c1ccc(OCc2cnc(Cl)s2)cc1
  2.0, 4531, -19, 74, 13, 39*, 26*
44) Cc1cc2ncn(N=Cc3cccnc3)c2cc1C
  -0.5, ., ., -3, ., -3, 17
45) O=C1N=C(N2CCOCC2)S/C1=C/c1ccc(-c2ccccc2Cl)o1
  3.5, 4376, -17, -7, -5, 4, 1
46) C=CCOc1ccccc1CNc1ccc2[nH]c(=O)[nH]c2c1
  4.9, 4469, -20, -1, 7, 6, 15
47) COc1ccc(C(=O)NNC(=O)CCc2ccccc2OC)cc1
  ., 6056, -12, ., -12, ., .
48) O=S(=O)(c1cccc(S(=O)(=O)N2CCCC2)c1)N1CCCCC1
  4.4, 5469, -11, -2, -5, 18, 8
49) C/C(CC(=O)Nc1ccccn1)=N\NC(=O)C(=O)Nc1cccc(C)c1
  ., 2750, -18, ., 6, ., .
50) COc1cccc(CNC(=O)c2ccc3c(c2)S(=O)(=O)N=C2CCCCCN23)c1
  0.2, 6352, 3, -1, 4, -7, 5
51) CC(NC(=O)COC(=O)C1CSC2(C)CCC(=O)N12)C12CC3CC(CC(C3)C1)C2 (stereo unspecified)
  4.9, 3241, 11, 13, -7, 2, 2
52) COc1ccc(/C=N/N=C2\SC(CC(=O)O)C(=O)N2c2ccccc2)c(OC)c1 (stereo unspecified)
  ., 9980, -13, ., -15, ., .
53) COc1ccccc1NCC(=O)NN=C(C)c1ccc(Br)s1
  0.1, ., ., -18, ., 1, -1
54) [O-]/C(=C(\C(=S)Nc1ccc(SC(F)F)cc1)[n+]1cccc(CO)c1)c1ccc(Cl)s1
  -3.1, 5111, -6, -3, 5, -4, 0
55) O=C(O)C(=O)Cc1c[nH]c2ccccc12
  5.6, 5225, 25, -9, 1, ., .
56) O=C(Nc1nnc(CSCc2ccc(F)cc2)s1)c1cccc([N+](=O)[O-])c1
  7.4, 7634, -4, 2, -1, 3, 5
57) CC(=O)N1CCN(C(=O)c2cccc(S(=O)(=O)N3c4ccccc4CC3C)c2)CC1 (stereo unspecified)
  5.0, 3106, -6, 4, ., 1, 3
58) COC(=O)C(NC(=O)c1cc(-c2ccccc2)nc2ccccc12)c1ccccc1 (stereo unspecified)
  -2.8, ., ., -2, ., 1, 7
59) Oc1ccc(-c2nnc(-c3ccc(O)cc3)nn2)cc1
  4.5, 9604, -28, -1, -3, -88, -13
60) CCC(Oc1ccccc1OC)C(=O)N1CC(=O)Nc2ccccc21 (stereo unspecified)
  6.2, 3763, -19, 11, -7, -12, -6
61) CC(=O)N/C(=C\c1ccccc1)C(=O)OC(C)C(=O)c1ccccc1 (stereo unspecified)
  2.2, ?, -10, 2, -3, -8, -5
62) Cc1cc(NC(=O)CSc2nc(C(C)C)nc3c2c(=O)n(C)c(=O)n3C)no1
  -13, 4478, -9, -3, 10, 6, 13
63) CN(CC(=O)NC1CCCc2ccccc21)C1CCCCC1 (stereo unspecified)
  3.5, 4616, -7, 2, 8, 12, 8
64) Nc1nc2n(n1)C(c1ccc(Cl)cc1)CC(c1ccc(F)cc1)N2 (stereo unspecified)
  4.3, 5395, -8, 2, -3, ., .
65) COc1ccccc1CNC(=O)[C@H](C)NC(=O)C1CCN(C(=O)[C@@H](N)CCSC)CC1
  0.9, 4192, -17, -9, 0, ., .
66) O=C(O)/C(=C\c1ccccc1)c1ccccc1
  2.5, 4235, 6, 5, 5, 15, 2
67) Cc1cccc(C)c1NC(=O)Cn1nc(C)n2cccc2c1=O
  -1.3, 5174, -18, 1, 1, 3, 8
68) O=C(NC1(C(F)(F)F)C(=O)Nc2c1c(=O)[nH]c(=O)n2Cc1ccccc1)c1ccco1 (stereo unspecified)
  1.5, 22776*, -13, -3, 1, 8, 7
69) Cc1ccccc1C(=O)Nc1ccc(S(=O)(=O)N2CCN(C)CC2)cc1
  9.7, ?, -15, 11, 4, 3, 9
70) Fc1cccc(CSc2ccc(-c3ccc4c(c3)OCO4)nn2)c1
  16, 2320, -29, -9, -2, 5, 1

# Whole records, quoted from the list. Values in the order: Sa RN4220 lethal, Autofluor counter, PrP 5UTR inh, ugtP null kill, BJeLR lethal, Mtb hypoxia rep, Mtb hypoxia rep growth
# COc1ccccc1CNC(=O)[C@H](C)NC(=O)C1CCN(C(=O)[C@@H](N)CCSC)CC1 reads 0.9, 4192, -17, -9, 0, ., .
# CC(=O)N/C(=C\c1ccccc1)C(=O)OC(C)C(=O)c1ccccc1 (stereo unspecified) reads 2.2, ?, -10, 2, -3, -8, -5
# O=C(NC1(C(F)(F)F)C(=O)Nc2c1c(=O)[nH]c(=O)n2Cc1ccccc1)c1ccco1 (stereo unspecified) reads 1.5, 22776*, -13, -3, 1, 8, 7
# O=C(O)/C(=C\c1ccccc1)c1ccccc1 reads 2.5, 4235, 6, 5, 5, 15, 2
# Cc1cc(NC(=O)CSc2nc(C(C)C)nc3c2c(=O)n(C)c(=O)n3C)no1 reads -13, 4478, -9, -3, 10, 6, 13

# Screens as filed in PubChem BioAssay.
